HCMV NEC inh: inhibitors of HCMV UL50-UL53 interaction, biochemical, HTRF. normalized percent inhibition. inhibition, % (no concentration beside the values). 0.15% of 190,000 active. HCMV UL50-UL53 nuclear egress complex (human cytomegalovirus);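 active = both replicates at 50% or more, plus weaker picks with an unusually low signal ratio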;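 also: stock transfer was 100 nL into about 20 µL; 0% = negative control wells and 100% = wells with untagged competitor protein; inactives centre near -12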
Sa growth 42C: S. aureus growth inhibition at 42 and 30 °C, primary screen, LtaS inhibitor project, RN4220, two temperatures. OD600, 20 h, 42 °C; stronger effect = lower value. relative growth, % (test concentration not listed). 0.53% of 170,000 active. AID 720641, 2013;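 active = growth at 42 °C up to 50% and 20 or more points under that at 30 °C, or under 10% at both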;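 also: 300 nL library stock went into each well; scaled to the means of positive and negative controls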
GIV-Gai inh: inhibitors of GIV peptide binding to Galpha-i3, primary screen, biochemical, fluorescence polarization, FITC-GIV GBA peptide, rat Galphai3; AID 1224905, 2016; 90 min; stronger effect = lower value; scaled: aluminum fluoride 0%, vehicle 100%; 0.42% of 210,000 active; percent of control (FP), % (concentration not given with the values);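 active = replicate mean at 85% of control or lower, very high polarization wells dropped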;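 also: wells of about 15 µL received 100 nL stock; the first replicate is given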
Target sequence (P08753 whole entry, looked up): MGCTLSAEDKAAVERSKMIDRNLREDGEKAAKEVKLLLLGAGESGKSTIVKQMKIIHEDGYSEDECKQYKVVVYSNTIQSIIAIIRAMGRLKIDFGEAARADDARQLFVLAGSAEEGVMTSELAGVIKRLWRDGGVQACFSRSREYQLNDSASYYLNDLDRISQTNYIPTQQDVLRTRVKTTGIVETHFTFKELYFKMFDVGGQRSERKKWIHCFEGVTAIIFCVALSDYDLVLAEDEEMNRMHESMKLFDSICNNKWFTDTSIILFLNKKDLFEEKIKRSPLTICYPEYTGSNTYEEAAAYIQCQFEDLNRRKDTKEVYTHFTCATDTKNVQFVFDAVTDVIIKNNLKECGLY
Sa growth 42C second temp: also measured in Sa growth 42C; calls as there; relative growth, %; measured here: growth at 30 °C;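 optical density after 20 h as mean of two plates; 100% = untreated growth and lower means inhibition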
Numbers without * were called inactive; & = joins results of further samples.

The opening five entries (preview)
How did Cc1cc(-c2ccccc2)n2nc(-c3ccc(Cl)cc3)cc2n1 do in these assays?
Sa growth 42C: 109.1; GIV-Gai inh: 50.6*; Sa growth 42C second temp: 87.7

Results for O=C(CN1C(=O)CCc2cc(Br)ccc21)Nc1ccc(OC(F)(F)F)cc1 ?
Sa growth 42C: 78.5; GIV-Gai inh: 102.3; Sa growth 42C second temp: 84.2

Results for CCOC(=O)c1cc(S(=O)(=O)N2CCCC2C(=O)NCCOC)cn1C (stereo unspecified) ?
HCMV NEC inh: -9.8; GIV-Gai inh: 101.0

What do the screens show for `O=C(Cn1nc(C(=O)O)c2ccccc2c1=O)NC12CC3CC(CC(C3)C1)C2`?
HCMV NEC inh: -30.5; Sa growth 42C: 93.6; Sa growth 42C second temp: 94.0

What do the screens show for `CCC(C(=O)NCCN1CCN(C)CC1)N1C(=O)CCn2nc(C)cc21` (stereo unspecified)?
HCMV NEC inh: -11.0; GIV-Gai inh: 108.5

The listing, previewed entries included:
How did Cc1cc(-c2ccccc2)n2nc(-c3ccc(Cl)cc3)cc2n1 do in these assays?
Sa growth 42C: 109.1; GIV-Gai inh: 50.6*; Sa growth 42C second temp: 87.7

Results for O=C(CN1C(=O)CCc2cc(Br)ccc21)Nc1ccc(OC(F)(F)F)cc1 ?
Sa growth 42C: 78.5; GIV-Gai inh: 102.3; Sa growth 42C second temp: 84.2

Results for CCOC(=O)c1cc(S(=O)(=O)N2CCCC2C(=O)NCCOC)cn1C (stereo unspecified) ?
HCMV NEC inh: -9.8; GIV-Gai inh: 101.0

What do the screens show for `O=C(Cn1nc(C(=O)O)c2ccccc2c1=O)NC12CC3CC(CC(C3)C1)C2`?
HCMV NEC inh: -30.5; Sa growth 42C: 93.6; Sa growth 42C second temp: 94.0

What do the screens show for `CCC(C(=O)NCCN1CCN(C)CC1)N1C(=O)CCn2nc(C)cc21` (stereo unspecified)?
HCMV NEC inh: -11.0; GIV-Gai inh: 108.5

How did Cc1nc2ccccc2c2c1C(=O)N(c1cccc(C(=O)OCc3ccccc3Cl)c1)C2=O do in these assays?
HCMV NEC inh: -13.7; GIV-Gai inh: 97.0

Results for Cc1ccc(N2C(=O)CCS2(=O)=O)cc1S(=O)(=O)Nc1ccc2c(c1)OCO2 ?
HCMV NEC inh: 7.1; GIV-Gai inh: 94.9

What do the screens show for `COc1ccc2cc3c(N)nn(C(=O)c4cncc(Br)c4)c3nc2c1`?
HCMV NEC inh: -27.5; Sa growth 42C: 101.3; GIV-Gai inh: 104.3; Sa growth 42C second temp: 89.7

Results for CCCNc1c(NC(C)=O)c(=O)oc2ccccc12 ?
HCMV NEC inh: -16.7; Sa growth 42C: 86.3; GIV-Gai inh: 100.4; Sa growth 42C second temp: 84.9

How did Cc1cccc(Cn2c(C)c(C)c3cc(C(=O)NCc4ccc(C)o4)ccc32)c1 do in these assays?
Sa growth 42C: 100.7; GIV-Gai inh: 103.2; Sa growth 42C second temp: 87.4

Results for CCCOc1ccc(C(=O)Nc2ccc(-c3nc4ccccc4o3)cc2)cc1 ?
Sa growth 42C: 106.5; GIV-Gai inh: 99.9; Sa growth 42C second temp: 88.0

Results for O=C(Cn1nc(S(=O)(=O)c2ccc(Br)cc2)ccc1=O)NCC1CCCO1 (stereo unspecified) ?
HCMV NEC inh: -71.0; GIV-Gai inh: 94.0

Results for COc1ccc(CC(=O)Nc2ccc(OC)cc2)cc1 ?
HCMV NEC inh: -9.2; Sa growth 42C: 110.4; Sa growth 42C second temp: 91.0

Results for CCOC(=O)c1c(SCC)nc(=O)[nH]c1C ?
HCMV NEC inh: -36.4; Sa growth 42C: 91.7; GIV-Gai inh: 97.5; Sa growth 42C second temp: 87.5

What do the screens show for `CS(=O)(=O)Nc1nnc(SCC(=O)Nc2ccccc2)s1`?
HCMV NEC inh: 0.0; Sa growth 42C: 113.4; GIV-Gai inh: 105.9; Sa growth 42C second temp: 93.2

What do the screens show for `O=S(=O)(c1cccs1)n1nnc2ccccc21`?
HCMV NEC inh: -9.2&-22.2; Sa growth 42C: 81.2; GIV-Gai inh: 97.0; Sa growth 42C second temp: 78.5

Results for CCC(C)N1C(=O)C2C(C(=O)Nc3cccc(C)c3)C3C=CC2(O3)C1C(=O)NC1CCCC(C)C1C (stereo unspecified) ?
Sa growth 42C: 113.9; GIV-Gai inh: 105.7; Sa growth 42C second temp: 77.6

What do the screens show for `CCOc1ccccc1C(=O)NCC(c1ccc(N(C)C)cc1)N1CCCC1` (stereo unspecified)?
Sa growth 42C: 93.7; GIV-Gai inh: 102.4; Sa growth 42C second temp: 87.6

Results for COc1ccc(C)cc1C(=O)CCC(=O)NC1CCCCC1 ?
HCMV NEC inh: -8.6; Sa growth 42C: 87.9; Sa growth 42C second temp: 98.8

How did CCOC(=O)c1nc(Nc2ccc(Cl)cc2)c2c(C)noc2n1 do in these assays?
Sa growth 42C: 76.5; GIV-Gai inh: 99.7; Sa growth 42C second temp: 81.4

By substructure: those above containing a Cl atom (three)
How did Cc1cc(-c2ccccc2)n2nc(-c3ccc(Cl)cc3)cc2n1 do in these assays?
Sa growth 42C: 109.1; GIV-Gai inh: 50.6*; Sa growth 42C second temp: 87.7

How did Cc1nc2ccccc2c2c1C(=O)N(c1cccc(C(=O)OCc3ccccc3Cl)c1)C2=O do in these assays?
HCMV NEC inh: -13.7; GIV-Gai inh: 97.0

How did CCOC(=O)c1nc(Nc2ccc(Cl)cc2)c2c(C)noc2n1 do in these assays?
Sa growth 42C: 76.5; GIV-Gai inh: 99.7; Sa growth 42C second temp: 81.4

Next results:
What do the screens show for `COc1ccc(-c2noc(CSc3ccc(-c4ccc5c(c4)OCO5)nn3)n2)cc1OC`?
HCMV NEC inh: -4.1; GIV-Gai inh: 101.7

Results for COc1cccc(CNn2cnnc2)c1O ?
HCMV NEC inh: 5.6; Sa growth 42C: 111.6; GIV-Gai inh: 104.7; Sa growth 42C second temp: 86.2

How did COc1cc(C2C(=O)N(C3CCCCCC3)CC(=O)N2CCC2=CCCCC2)ccc1OC(C)C (stereo unspecified) do in these assays?
Sa growth 42C: 117.0; GIV-Gai inh: 106.3; Sa growth 42C second temp: 92.5

Results for COc1cccc(CNC(C)C(=O)Nc2ccc(S(N)(=O)=O)cc2)c1 (stereo unspecified) ?
HCMV NEC inh: -15.1; Sa growth 42C: 83.6; Sa growth 42C second temp: 94.1

What do the screens show for `O=C(/C=C/c1ccccc1)NCc1nc2ccccc2[nH]1`?
HCMV NEC inh: -36.8; Sa growth 42C: 94.9; Sa growth 42C second temp: 79.0

Results for O=c1cc(CN2CCN(S(=O)(=O)/C=C/c3ccccc3)CC2)c2ccc(O)cc2o1 ?
HCMV NEC inh: -17.5; Sa growth 42C: 72.7; Sa growth 42C second temp: 64.4

Results for COc1ccc(CCNC(=O)Cc2c(C)c3c(cc(C)c4c(C)coc43)oc2=O)cc1OC ?
HCMV NEC inh: -25.5; Sa growth 42C: 96.7; GIV-Gai inh: 102.2; Sa growth 42C second temp: 85.9

How did Cc1c(C(=O)NN)c2cc(O)ccc2n1C do in these assays?
HCMV NEC inh: -52.6; Sa growth 42C: 74.2; GIV-Gai inh: 105.7; Sa growth 42C second temp: 83.4

Results for COC(=O)c1ccc(C(=O)Nc2ccc3nc(-c4cccnc4)[nH]c3c2)cc1 ?
HCMV NEC inh: -6.3; Sa growth 42C: 85.8; GIV-Gai inh: 104.3; Sa growth 42C second temp: 115.8

How did Cc1cc(C)c2c(N)c(S(=O)c3ccc(C(C)(C)C)cc3)sc2n1 (stereo unspecified) do in these assays?
Sa growth 42C: 95.6; GIV-Gai inh: 96.5; Sa growth 42C second temp: 95.6

How did COc1ccc(Nc2nc(N3CCN(S(=O)(=O)N(C)C)CC3)nc3ccccc23)cc1 do in these assays?
HCMV NEC inh: 8.0; Sa growth 42C: 64.1; GIV-Gai inh: 103.8; Sa growth 42C second temp: 41.9

How did O=C(N/C=C/c1ccco1)OCc1ccc(C(F)(F)F)cc1 do in these assays?
HCMV NEC inh: -12.6; GIV-Gai inh: 131.4

What do the screens show for `Cc1nc2ccc(C(=O)OCC#N)cc2nc1C`?
HCMV NEC inh: -71.3; Sa growth 42C: 99.5; Sa growth 42C second temp: 87.1

Results for Cc1ccc(C2C(C(=O)O)c3ccccc3C(=O)N2C)o1 (stereo unspecified) ?
HCMV NEC inh: -13.5; Sa growth 42C: 101.0; GIV-Gai inh: 100.4; Sa growth 42C second temp: 88.0

How did O=C(Nc1cccc(Cl)c1)c1ncn(-c2ccccc2)n1 do in these assays?
Sa growth 42C: 110.0; GIV-Gai inh: 110.9; Sa growth 42C second temp: 87.4

How did Cc1cc(C)n(CC(=O)Nc2oncc2-c2ccccc2)c(=O)c1S(=O)(=O)c1ccc(Br)cc1 do in these assays?
HCMV NEC inh: 6.5; GIV-Gai inh: 106.1

What do the screens show for `O=S(=O)(CCSc1nc2ccccc2s1)c1nc2ccccc2s1`?
Sa growth 42C: 68.9; GIV-Gai inh: 99.9; Sa growth 42C second temp: 56.5

What do the screens show for `O=C1COc2ccc(S(=O)(=O)N3CCCC(C(=O)NCc4ccc(Cl)cc4)C3)cc2N1` (stereo unspecified)?
HCMV NEC inh: -18.5; GIV-Gai inh: 108.6

How did COc1ccc(/C=N/n2cn[nH]c2=S)cc1 do in these assays?
HCMV NEC inh: -24.4; Sa growth 42C: 87.9; GIV-Gai inh: 108.1; Sa growth 42C second temp: 87.6

Results for COc1ccc(CCNc2nc(-c3ccc(Cl)cc3)cc(C(F)(F)F)n2)cc1OC ?
HCMV NEC inh: -0.6; Sa growth 42C: 99.9; GIV-Gai inh: 97.7; Sa growth 42C second temp: 87.2

Results for Fc1nc(N2CCCC2)c(F)c(Oc2ccc(Cl)cc2)c1F ?
HCMV NEC inh: -33.8; Sa growth 42C: 85.4; GIV-Gai inh: 105.8; Sa growth 42C second temp: 72.9

What do the screens show for `O=S1(=O)c2ccccc2NC(c2cccc(Cl)c2)N1Cc1ccccc1` (stereo unspecified)?
HCMV NEC inh: -13.9; GIV-Gai inh: 96.5

How did COc1nc(SC)nc2c1oc1ccccc12 do in these assays?
HCMV NEC inh: 10.9; GIV-Gai inh: 105.4

How did COC(=O)c1cc(Cl)ccc1NC(=O)Cn1c(C)cc(C)c(C#N)c1=O do in these assays?
HCMV NEC inh: -8.6; Sa growth 42C: 100.3; GIV-Gai inh: 109.8; Sa growth 42C second temp: 95.0

Results for Cc1[nH]c2ccccc2c1SCCNC(=O)c1ccccc1F ?
HCMV NEC inh: -8.6; Sa growth 42C: 98.6; GIV-Gai inh: 107.7; Sa growth 42C second temp: 85.0

Results for O=C1c2[nH]nc(-c3ccccc3O)c2C(c2ccc(Cl)cc2)N1Cc1ccco1 (stereo unspecified) ?
HCMV NEC inh: 2.6; Sa growth 42C: 97.3; GIV-Gai inh: 102.2; Sa growth 42C second temp: 95.1

What do the screens show for `Cc1cc2nc3c(=O)n(C)c(=O)[nH]c3nc2cc1N=CN(C)C`?
HCMV NEC inh: -26.4; Sa growth 42C: 95.5; GIV-Gai inh: 87.6; Sa growth 42C second temp: 99.1

Results for O=C(c1ccc(Cl)cc1)n1nc(-c2cccnc2)nc1NCc1ccc(F)cc1 ?
HCMV NEC inh: -24.4; Sa growth 42C: 106.8; GIV-Gai inh: 101.8; Sa growth 42C second temp: 89.3

How did COC(=O)C1=CN(C)C=C(C(=O)OC)C1c1ccc(C(C)C)cc1 do in these assays?
Sa growth 42C: 89.0; GIV-Gai inh: 99.3; Sa growth 42C second temp: 88.4

Results for COc1ccc(N(CC(=O)c2cc(C)n(C)c2C)S(=O)(=O)c2ccc3c(c2)OCCO3)cc1 ?
HCMV NEC inh: -7.7; Sa growth 42C: 96.2; Sa growth 42C second temp: 98.9

What do the screens show for `N#CCc1ccc(OC(=O)c2sc3ccccc3c2Cl)cc1`?
HCMV NEC inh: -18.4; Sa growth 42C: 96.5; GIV-Gai inh: 103.4; Sa growth 42C second temp: 86.5

Results for Cn1cccc1/C=C1\CN(Cc2ccccc2)C/C(=C\c2cccn2C)C1=O ?
HCMV NEC inh: -57.7; Sa growth 42C: 78.8; GIV-Gai inh: -87.6*; Sa growth 42C second temp: 61.4

Results for CCS(=O)(=O)c1ncc(N(Cc2ccccc2)Cc2ccco2)c(C(=O)Nc2cccc(Cl)c2C)n1 ?
HCMV NEC inh: -44.0; Sa growth 42C: 102.5; GIV-Gai inh: 100.3; Sa growth 42C second temp: 82.3

Results for Cn1c(NC2CC(=O)N(c3ccc(Cl)cc3Cl)C2=O)cc(=O)n(C)c1=O (stereo unspecified) ?
HCMV NEC inh: -14.7; Sa growth 42C: 94.9; Sa growth 42C second temp: 89.3

Results for COC(=O)c1cc(Oc2ccc(C(=O)OC)cc2N)cc(C(=O)OC)c1 ?
HCMV NEC inh: -6.9; Sa growth 42C: 103.8; Sa growth 42C second temp: 87.3

Results for CCC(=O)Nc1cc(-n2cnnn2)ccc1N1CCCC1 ?
HCMV NEC inh: 1.3; GIV-Gai inh: 103.6

What do the screens show for `O=C(CSc1nc(=O)n(Cc2ccncc2)c2c1CCC2)Nc1ccccc1`?
Sa growth 42C: 113.3; GIV-Gai inh: 105.4&102.7; Sa growth 42C second temp: 89.1

Compound activity (PubChem BioAssay)
